# Bioassay records (PubChem BioAssay)
# Vaccinia Venus: inhibitors of vaccinia virus (Venus reporter). Vaccinia virus Venus reporter expression, fluorescence. Potency, µM (top dose mostly 36.5 µM), without a hit: top-dose activity change, negative = inhibition, hits mostly inhibitors. 330,000 tested, 0.46% active; active means well fitted inhibition curve with a large enough effect; inconclusive means small, poorly fitted or top-dose-only effect; inactive means no such curve, though single readings can be large or run the other way; tested in A549 cells; further: nearly all actives have a fitted effect of over 30% in size; inactives centre near -10
# VACV mCherry inh: vaccinia inhibition (mCherry reporter); Vaccinia virus mCherry reporter infection, fluorescence; about a quarter of the inactives have no number; Potency, µM (highest dose often 36.5 µM), inactives show at the top dose activity change, negative = inhibition, hits mostly inhibitors; 310,000 tested, 0.63% active; active = well fitted inhibition curve with a large enough effect; inconclusive = small, poorly fitted or top-dose-only effect; inactive = no such curve, though single readings can be large or run the other way; tested in A549 cells; further: nearly all actives have a fitted effect of over 35% in size; inactives centre near -10
# An asterisk follows results filed as active; i = inactive; ? = inconclusive; / = not tested or not shown. On the % scale 0 is the no-effect control and ±100 the full control effect; potency means the concentration at half of the fitted maximal effect. An unsorted share of the library; any-hit rate near 0.82%.
SMILES,Vaccinia Venus,VACV mCherry inh
CCN(CC)C(=O)CC(c1ccc2c(c1)OCO2)c1c(OC)cc(OC)c2ccc(=O)oc12 (stereo unspecified),-14%,-12%
CCc1nnc(NC(=O)CCC(=O)NC2CCCCC2)s1,5%,/
COc1ccc(NC(=O)Nc2nnc(Cc3ccc(F)cc3)s2)cc1,-3%,-17%
CCOC(=O)CC(NCc1ccc(OC)c(OCC)c1)c1ccc(C)cc1 (stereo unspecified),-1%,-12%
O=C(Nc1ccccc1)N1CCCC(CNS(=O)(=O)Cc2ccccc2)C1 (stereo unspecified),-1%,-11%
CN(C)c1cc[n+](CC(=O)Nc2cc(C(F)(F)F)ccc2Cl)cc1,-26%,-21%
COc1ccccc1NC(=O)Cn1c(=O)n(-c2cccc(Cl)c2)c(=O)c2sc3ccccc3c21,?,?
COC(=O)c1sc(NC(=O)CSc2nc3cccnc3n2C)nc1C,1%,-16%
O=C(Cn1nnc(-c2ccccc2)n1)NC(=O)NC1CCCC1,-14%,-18%
N#CCCN(C(=O)COC(=O)/C=C/c1cccs1)c1ccccc1,7%,i
N#CCC(=O)N/N=C\c1cc(Br)ccc1OC/C=C/c1ccccc1,1%,-20%
O=C1CN(C(=O)c2ccco2)c2ccccc2N1,-2%,-7%
C=CCCC(=O)N1CCC(Oc2cccc(C(=O)NCc3ccccn3)c2)CC1,-12%,-1%
CC(C)Oc1cc2ccccc2cc1CNC[C@H]1O[C@@H](n2cnc3c(N)ncnc32)[C@H](O)[C@@H]1O,-13%,i
COc1ccc(NC(=O)CCc2c(C)nc3c(-c4ccc(F)cc4)c(C)nn3c2C)c(OC)c1,-4%,-19%
Cc1ccc(CNC(=O)CCCCCn2c(=O)c3sccc3n(CC(=O)Nc3c(C)cc(C)cc3C)c2=O)cc1,2%,-2%
COc1ccc(NC(=O)CN(C)C(=O)Cc2ccc3c(c2)CCC3)cc1,1%,-1%
O=C(c1ccc(Nc2cccc(C(F)(F)F)c2)nc1)N1CCCC1,-16%,-11%
Cc1oc(-c2cccc(NC(=O)C3CCCN(C)C3)c2)nc1CNC(=O)c1coc2c1C(=O)CCC2 (stereo unspecified),-29%,-23%
C[C@H](O)[C@@H]1CN2CCc3c([nH]c4ccccc34)[C@@H]2C[C@@H]1N(C)C(=S)NCCc1ccccc1,-7%,10%
COc1ccccc1N1CCN(C(=S)Nc2ccc(S(=O)(=O)N3CCOCC3)cc2)CC1,?,?
CCOC(=O)C1(C(F)(F)F)N=C(c2cccnc2)OC(N2CCCCC2)=N1 (stereo unspecified),-15%,-2%
Cc1ccccc1OCc1nnc2c3cnn(C)c3ncn12,-12%,-18%
COc1ccc(C2NC(=O)NC(C)=C2C(=O)OC2CCCCC2)cc1 (stereo unspecified),-19%,-4%
COc1cccc(CNc2ccc([N+](=O)[O-])cc2C)c1,-6%,-22%
COc1ccccc1NC(=S)Nc1ccccc1F,-14%,/
CCN(CC(=O)Nc1ccc2c(c1)OCCO2)C(=O)c1ccc(CS(C)(=O)=O)cc1,-3%,-13%
CCOC(=O)NC(=O)c1cn(C(CC)CO)c(=O)[nH]c1=O (stereo unspecified),0%,i
Cc1nc(NCCc2ccccc2)c2nnn(Cc3ccccc3Cl)c2n1,1%,i
CC(C)CC(=O)NCC(C)NC(=O)CC(C)C (stereo unspecified),-9%,i
O=C(COc1ccccc1Cl)Nc1ccc(Cl)c(-c2nc3ccccc3o2)c1,?,?
CC(=O)c1cccc(OCC(=O)N(CCC2=CCCCC2)c2c(N)n(Cc3ccccc3)c(=O)[nH]c2=O)c1,-7%,15%
CCCCn1c(N)c(N(CCOC)C(=O)CN2C(=O)c3ccccc3C2=O)c(=O)[nH]c1=O,-18%,i
O=C(N=c1ccn(-c2nc3ccccc3nc2NS(=O)(=O)c2ccccc2)cc1)c1cccs1,-9%,-14%
COc1cccc(-n2cc3c(c2-c2ccccc2)c(=O)n(C)c(=O)n3C)c1,-24%,/
COC(=O)c1ccc([C@H]2Nc3ccc(S(=O)(=O)Nc4ccc(F)cc4)cc3[C@H]3C=CC[C@H]32)cc1,-15%,-5%
O=C1CN(C(=O)CN2CCN(S(=O)(=O)c3ccccc3F)CC2)c2ccccc2N1,-19%,?
O=C(O)Cn1c(SCc2cccc3ccccc23)nc2ccccc21,-6%,2%
Cc1ccc2ccccc2c1CSc1nc(N)nc2c1ncn2CC(C)C,?,-15%
CC1(C(=O)NS(=O)(=O)Cc2ccccc2C(F)(F)F)CCN1C(=O)Cc1ccccc1 (stereo unspecified),5%,13%

# Profiles, looked up by structure. Order of values: Vaccinia Venus, VACV mCherry inh
# Shown for O=C(N=c1ccn(-c2nc3ccccc3nc2NS(=O)(=O)c2ccccc2)cc1)c1cccs1 : -9%, -14%
# Shown for COc1ccccc1N1CCN(C(=S)Nc2ccc(S(=O)(=O)N3CCOCC3)cc2)CC1 : ?, ?

# Next records:
SMILES,Vaccinia Venus,VACV mCherry inh
Cc1nc2cc(-c3cccc(F)c3)nn2c(C)c1CCC(=O)NCCc1ccccc1,-20%,-15%
COc1ccccc1CNC(=O)CCC1N=C2c3ccccc3N=C(SCC(=O)NCCc3ccccc3)N2C1=O (stereo unspecified),8%,2%
O=C(COc1ccccc1C(=O)Nc1ccccc1)NCCCCc1ccccc1,-13%,-1%
C=CCNCCCOc1ccc(Cl)cc1Br,?,-15%
N#C/C(=C/c1ccc(O)c([N+](=O)[O-])c1)C(=O)Nc1ccccc1,-26%,-11%
COc1ccc(CN2CCC[C@]3(N[C@H](c4ccc(OC)cc4)[C@@H]4C(=O)N(C)C(=O)[C@@H]43)C2=O)cc1,-10%,i
CCN(CC)C(=O)C1=C(C)N(Cc2ccc(F)cc2)C(=O)C(CC(=O)NCCCCc2ccccc2)C1 (stereo unspecified),-28%,?
CCOC(=O)Nc1ccc2c(c1)N(C(=O)CCN(CC)CC)c1ccccc1S2=O (stereo unspecified),?,10µM*
COC(=O)c1cc(-n2cccc2)ccc1N1CCOCC1,-5%,i
CC1(C)SC2C(NC(=O)Cc3ccccc3)C(=O)N2C1C(=O)O (stereo unspecified),-19%,-2%
CN(C)c1nc(N)c2ncc(=S)[nH]c2n1,-4%,i
COc1ccc(-n2nnnc2C(c2cccs2)N2CCC(n3c(=O)[nH]c4ccccc43)CC2)cc1 (stereo unspecified),?,-24%
CC(=O)c1c(C)[nH]c(C)c1C(C)=O,-5%,i
CN1CCC(=O)N([C@H](CSc2ccc(Br)cc2)Cc2ccccc2)CC1,-15%,i
O=C(Nc1cccc(F)c1)NC1(C(=O)N2CCC(O)CC2)CCCCC1,-8%,i
CC(NC(=O)C(Cc1ccccc1)n1cccc1)c1ccccc1 (stereo unspecified),4%,-5%
COc1ccc(S(=O)(=O)N2CCN(C(=O)CCNC(=O)c3ccccc3Cl)CC2)cc1,-22%,-5%
CCOc1ccc(N2CC(c3nc4ccccc4n3CCCOc3ccccc3)CC2=O)cc1 (stereo unspecified),-16%,-22%
CCOC(=O)C(C(C)=O)C(c1ccc(OC)cc1)C(C(C)=O)C(=O)OCC (stereo unspecified),-11%,/
CCN1C(=O)CC(C(=O)OC)=C1C,-3%,i
CC1(C(=O)NS(=O)(=O)C2CC2)CCN(C(=O)c2ccc3c(c2)OCO3)C1 (stereo unspecified),-1%,8%
CCn1cc(C(=O)NCCCN2CCCCCC2)c(=O)c2cc(S(=O)(=O)N3CCc4ccccc4C3)ccc21,?,-10%
CC1CCCC(NC(=O)COC(=O)c2cccc(NS(=O)(=O)/C=C/c3ccccc3)c2)C1C (stereo unspecified),-10%,-13%
CN(C)C(CNC(=S)Nc1cccc(Cl)c1)c1cccnc1 (stereo unspecified),-4%,i
O=C(NCC1CCCO1)c1ccc(COc2ccc(Cl)cc2)cc1 (stereo unspecified),-17%,i
COc1ccc(NC(=O)Cc2ccc(Cl)c(Cl)c2)cn1,-13%,i
O=C(NCCCN=C1NS(=O)(=O)c2ccccc21)c1ccc(Cl)cc1,4%,8%
C=CCCC1(C(C)C)C(=O)NC(=S)NC1=O,2%,i
Cc1ccccc1CN1CCc2nc(Nc3ccc4c(c3)OCCO4)ncc2C1,-18%,-29%
O=C(CC(Cc1ccccc1)C(=O)O)Nc1cccc(C(F)(F)F)c1 (stereo unspecified),-10%,i
O=C(Cc1ccc(OCCCCc2ccccc2)cc1)NO,-16%,-21%
O=C(NCc1nc2ccccc2[nH]1)C1=C[C@H](c2coc3ccccc3c2=O)C[C@H](OCc2ccc(CO)cc2)O1,-19%,-2%
CN(Cc1ccccn1)Cc1nc(COc2ccccc2)no1,-15%,i
Cc1cc(C(=O)OCC(=O)c2cccs2)ccc1[N+](=O)[O-],-10%,?
O=C(C1CCCCC1)N(Cc1ccccc1)c1ccccn1,-21%,i
Cc1cccc(NC(=O)c2cc(NC(=O)C3CCCCC3C(=O)O)ccc2Cl)n1 (stereo unspecified),-7%,/
COc1ccc(CCNC/C=C/c2ccccc2)cc1,-8%,-3%
CC(=O)Nc1cccc(NC(=O)CN2C(=O)CCSc3ccccc32)c1,2%,8%
Cc1cc2oc(=O)cc(CN3CCN(S(=O)(=O)c4cccs4)CC3)c2cc1C,-5%,-7%
CCOC(=O)N1CCC(NC(=O)Cn2nc(-c3ccccc3)ccc2=O)CC1,-6%,-21%
O=C(NC1CCCCC1)c1n[nH]c2c1CC(c1ccccc1)CC2 (stereo unspecified),?,-11%
O=C(CCCSc1nc(-c2ccco2)cc(C(F)(F)F)n1)Nc1ccc2c(c1)OCO2,?,/
COc1ccc(CSc2nnc(-c3ccncc3)n2C)cc1F,-21%,-6%
Cc1nccn1CCC1CCCCN1C(=O)CCc1nnc(-c2ccsc2)o1 (stereo unspecified),2%,-7%
CN(Cc1cc2ccccc2[nH]c1=O)C(=O)c1cccs1,-15%,-3%
COc1ccc(/C=N/OCC(=O)N(Cc2ccc(OC)cc2)c2ccccc2C(=O)O)cc1,3%,i
CC(C)(C)OC(=O)N1CCCC(C(=O)Nc2ccc(C(=O)NCCc3ccccc3)cc2)C1 (stereo unspecified),-12%,2%
Cc1ccc(C)c(N2CCN(C(=O)CCc3nc(-c4ccccc4C)no3)CC2)c1,-4%,-16%
COc1ccc(NC(=O)C(CC(C)C)NS(=O)(=O)c2ccc3c(c2)CCN3C(C)=O)cc1OC (stereo unspecified),-6%,-14%
Cc1nn2c(Nc3ccc(F)cc3)c3c(nc2c1-c1ccccc1)CCC3,-7%,-15%
COc1ccc(NC(=O)CCCCC(=O)Nc2ccc(OC)cc2)cc1,-9%,-18%
CN(Cc1ccccc1)c1oc(COc2ccccc2F)nc1C#N,7%,2%
Cc1ccc(C(=O)NCC(=O)N2CCN(c3ccccc3O)CC2)s1,?,-24%
COc1ccc(C(=O)/C=C/C(=O)N(Cc2ccccc2OC)C(C(=O)NC2CCCCC2)c2ccncc2)c(O)c1 (stereo unspecified),?,-19%
O=C(Nc1cccnc1)C1CCN(S(=O)(=O)c2cccs2)CC1,-10%,3%
Cc1ccccc1Nc1nc(N)nc(CSc2nnc(C)n2C)n1,1%,-11%
O=C(CSc1ccc2nnc(-c3cccnc3)n2n1)Nc1ccc(F)cc1F,-13%,-10%
Nc1nonc1C(=O)NCCNC(=O)c1cccs1,-9%,-18%
COc1cc2c(c(OC)c1OC)-c1ccc(OC)c(=O)cc1[C@@H](NC(C)=O)CC2,?,?
O=C(Nc1ccccc1F)c1nc(S(=O)(=O)Cc2ccccc2F)ncc1Cl,?,i
Cc1ccc(C(=O)C2CN(C)CC2C(=O)c2ccc(C)cc2)cc1 (stereo unspecified),-10%,-4%
CC(C)(C)P(=O)(NCc1ccccc1)c1ccccc1 (stereo unspecified),-5%,2%
O=C(Cn1cc([N+](=O)[O-])cn1)NCc1ccc(-n2cccn2)cc1,-4%,i

# Gathered by group: the compounds so far containing a thiophene ring, fused or not
SMILES,Vaccinia Venus,VACV mCherry inh
COc1ccccc1NC(=O)Cn1c(=O)n(-c2cccc(Cl)c2)c(=O)c2sc3ccccc3c21,?,?
N#CCCN(C(=O)COC(=O)/C=C/c1cccs1)c1ccccc1,7%,i
Cc1ccc(CNC(=O)CCCCCn2c(=O)c3sccc3n(CC(=O)Nc3c(C)cc(C)cc3C)c2=O)cc1,2%,-2%
O=C(N=c1ccn(-c2nc3ccccc3nc2NS(=O)(=O)c2ccccc2)cc1)c1cccs1,-9%,-14%
COc1ccc(-n2nnnc2C(c2cccs2)N2CCC(n3c(=O)[nH]c4ccccc43)CC2)cc1 (stereo unspecified),?,-24%
Cc1cc(C(=O)OCC(=O)c2cccs2)ccc1[N+](=O)[O-],-10%,?
Cc1cc2oc(=O)cc(CN3CCN(S(=O)(=O)c4cccs4)CC3)c2cc1C,-5%,-7%
Cc1nccn1CCC1CCCCN1C(=O)CCc1nnc(-c2ccsc2)o1 (stereo unspecified),2%,-7%
CN(Cc1cc2ccccc2[nH]c1=O)C(=O)c1cccs1,-15%,-3%
Cc1ccc(C(=O)NCC(=O)N2CCN(c3ccccc3O)CC2)s1,?,-24%
O=C(Nc1cccnc1)C1CCN(S(=O)(=O)c2cccs2)CC1,-10%,3%
Nc1nonc1C(=O)NCCNC(=O)c1cccs1,-9%,-18%
